eIF4H inh: inhibitors of RNA binding by human eIF4H. Q15056. eIF4H fluorescence polarization binding assay. inhibition, % at 35 µM. hit rate 0.94% among 290,000;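 active means 50% or more with normal probe brightness, or confirmed in later tests; about a fifth of its hits are not listed in these tables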;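 further: calls also rest on retests at 20 µM and on dose response follow-up; 0% = protein and probe with vehicle and 100% = probe without protein; strong numbers were not always called active; many hits fall short of the cut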
Env fusion inh: HIV envelope-mediated fusion inhibition; HeLa-JRFL Env/CEM21 cell fusion, luciferase; inhibition, % at 12.3 µM; hit rate 1.1% among 360,000;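 active means mean replicate inhibition score of at least 50 and every replicate individually at or above 50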;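 further: 0% = plate neutral controls and 100% = maraviroc near 300 nM; one replicate is shown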
CSC inhib: cancer stem cell inhibition; inhibition, % at 7.5 µM; hit rate 1.1% among 300,000; cancer stem cell-like cells viability, luminescence;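 active means mean at 75% or more and at least half the replicates too; tested in HMLE shEcad cells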;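 further: 0% = median of negative and 100% = median of positive control wells; the first replicate is given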
MT1-MMP act inh: inhibitors of human MT1-MMP activation; HT1080 RFP-PRO-GFP cells, GFP/RFP ratio fluorescence, overnight; percent of plate control window, DMSO zero; AID 651647; hit rate 0.061% among 360,000; GFP/RFP ratio change, % at 20 µM;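 active means GFP/RFP ratio change of at least 30% with cell ATP level not reduced by more than half and red fluorescence within 50% of control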; further: strong numbers were not always called active
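Assay system: HT1080 cells carrying an RFP-PRO-GFP reporter | Dosing: Single dose of 20 µM compound, 1% DMSO final | Incubation: Cells overnight before dosing, compound overnight, 37 °C, 5% CO2 | Evaluation: GFP/RFP fluorescence ratio | Control set: DMSO and RFP-L50D-GFP cell wells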
Yeast UUG start: alters start codon recognition fidelity in yeast. S. cerevisiae UUG-firefly luciferase reporter, luminescence/redox ratio. activity score, % at 18.7 µM. hit rate 0.13% among 350,000. AID 602363;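 active means replicate mean at a twofold rise or more, about +100% in these data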;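 further: firefly luciferase made from a UUG start codon reports start codon fidelity; reporter light over untreated wells divided by growth signal over untreated wells; some hits fall short of that in this replicate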
Rce1 inhib: inhibitors of yeast Ras-converting enzyme; calls only; Q03530; AID 2563; hit rate 0.27% among 290,000; yeast membranes, quenched prenylated peptide cleavage fluorescence;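 active means fall in fluorescence gain of 50% or more versus controls, with final raw signal at or below 3038400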;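 further: plate controls were neutral control wells for no effect and wells lacking membranes for full effect; tested at 10 µM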
PABP polyA inh: PABP-poly(A) binding inhibition; inhibition, % at 35 µM; PABP-poly(A) RNA binding, fluorescence polarization; hit rate 1% among 290,000; AID 2014; P11940;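 active means 50% or more with normal probe brightness, or confirmed in later tests; about a fifth of its hits are not listed in these tables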;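 further: calls also rest on retests at 20 µM and on dose response follow-up; controls were probe without protein and protein plus probe with vehicle; some compounds called inactive have numbers as strong as hits; many hits fall short of the cut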
Target sequence (P11940 whole entry, looked up): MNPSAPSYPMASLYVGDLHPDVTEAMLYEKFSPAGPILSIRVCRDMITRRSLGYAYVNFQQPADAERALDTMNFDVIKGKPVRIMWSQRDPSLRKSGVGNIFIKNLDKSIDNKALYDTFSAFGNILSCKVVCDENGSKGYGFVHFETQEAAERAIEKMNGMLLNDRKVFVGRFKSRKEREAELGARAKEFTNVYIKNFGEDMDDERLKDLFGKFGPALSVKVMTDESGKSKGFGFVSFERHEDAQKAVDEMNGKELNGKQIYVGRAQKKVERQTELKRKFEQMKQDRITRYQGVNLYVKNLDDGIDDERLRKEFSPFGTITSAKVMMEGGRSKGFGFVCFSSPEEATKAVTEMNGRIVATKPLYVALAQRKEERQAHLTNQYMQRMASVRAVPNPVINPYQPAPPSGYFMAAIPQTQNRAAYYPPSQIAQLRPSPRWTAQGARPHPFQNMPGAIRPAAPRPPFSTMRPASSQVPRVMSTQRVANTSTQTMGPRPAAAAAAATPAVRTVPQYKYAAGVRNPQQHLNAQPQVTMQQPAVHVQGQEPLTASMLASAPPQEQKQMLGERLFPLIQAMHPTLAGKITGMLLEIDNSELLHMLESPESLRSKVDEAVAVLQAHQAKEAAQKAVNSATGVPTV
MT1-MMP act inh RFP: also measured in MT1-MMP act inh; calls as there; RFP signal change, %; measured here: RFP expression control read;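 0 = vehicle wells; hits needed this value within 50% of zero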
Active calls of the source: *; i = inactive; / = no result given. The list is partial; count on the stated rates, not on these rows.

SMILES | eIF4H inh | Env fusion inh | CSC inhib | MT1-MMP act inh | MT1-MMP act inh RFP | Yeast UUG start | Rce1 inhib | PABP polyA inh
CC1(C)CC(NC(=O)CCc2ccccc2)CC(C)(C)N1 | 3 | / | 7 | -4 | 1 | 11 | i | 10
COC(=O)C1C(O)=C(C=Nc2ccc(N)cc2)C(=O)CC1(C)C (centres undefined) | -1 | -21 | -4 | 9 | 4 | -7 | i | 1
C/C(CC(=O)NC1CCCC1)=N\NC(=O)c1ccc([N+](=O)[O-])c(Cl)c1 | -3 | 17 | -6 | 5 | 7 | / | / | 5
O=C1Nc2ccccc2/C1=C\C(=O)c1ccccc1 | -1 | -35 | 15 | -7 | -7 | -11 | i | 5
S=C(NC1CCCCC1)NN1CCOCC1 | -4 | -12 | -5 | -2 | 1 | -4 | i | -10
O=C(c1cccc(Br)c1)c1nc2ccccc2[nH]c1=O | / | 23 | / | 4 | 6 | -11 | / | /
Cc1ccc(C)c(C2C(=O)c3ccccc3C2=O)c1 | -16 | 13 | 20 | 0 | 0 | -28 | i | 3
CC(O)CNC(=O)c1ccc(-c2nn(C)c(=O)c3ccccc23)cc1 (centres undefined) | 4 | -32 | 1 | 2 | 1 | -6 | i | 0
Nn1c(SCCOc2ccc(Cl)cc2)nnc1-c1cccnc1 | -8 | 1 | -3 | 4 | 1 | / | i | -4
Cc1cc(C)nc(SCc2nnc(SCC(=O)Nc3ccccc3C)n2Cc2ccco2)n1 | 18 | -6 | -11 | -1 | -4 | -21 | i | 17
CCOc1ccccc1NC(=O)Nc1ccc(Cl)cc1 | -5 | 1 | 7 | 6 | -3 | 3 | i | 0
O=C1C=CC(=O)N1c1cccc2cccnc12 | / | 8 | / | 1 | 7 | -10 | / | /
Brc1cccc2sc(N3CCN(c4ccccc4)CC3)nc12 | -6 | -4 | 3 | 4 | -2 | / | i | 7
O=C(NCCN1CCOCC1)c1cc(-c2ccccc2Cl)nc2ccccc12 | 2 | 10 | 1 | -3 | 0 | -12 | i | 3
CC(NC(=O)COc1ccccc1-c1ccccc1)c1ccccc1 (centres undefined) | -5 | 4 | 4 | -6 | -9 | / | i | -12
CS(=O)(=O)N1CCN(c2ccccc2NC(=O)c2ccc(Cl)cc2)CC1 | -11 | / | -28 | -1 | -2 | / | i | 1
CCNCCC(CCC(C)C)c1ccc2c(c1)OCO2 (centres undefined) | -6 | 22 | 3 | 1 | 4 | -8 | i | 14
CCc1cnc(Nc2nc(C(N)c3ccccc3Cl)cs2)nc1 (centres undefined) | / | 23 | / | 3 | 3 | 0 | / | /
CC1CCCCN1C(=O)CSc1nnc(-c2ccco2)n1CC1CCCO1 (centres undefined) | 0 | -65 | 14 | -4 | 2 | -14 | i | 2
CC(C)C[C@@H](CN1CCC[C@@H]1CN1C(=S)NC[C@@H]1Cc1ccc(O)cc1)N1C[C@H](Cc2ccc(O)cc2)N(CC2CCCCC2)C1=S | / | 32 | / | -1 | -6 | -18 | / | /
O=C(NCCCc1ccccc1)Nc1cccc(Cl)c1 | -7 | 0 | 21 | 4 | -2 | 0 | i | 41
COc1ccccc1C(=O)NCCC(=O)N1CCCC(C(F)(F)F)C1 (centres undefined) | 2 | 21 | -1 | 1 | 8 | -5 | i | -1
O=C(OCC(=O)C12CC3CC(CC(C3)C1)C2)c1ccccc1O | / | 17 | -5 | -2 | 1 | -8 | / | /
Cc1ccc(-n2nnnc2SC(C(=O)c2c[nH]c3ccccc23)c2ccccc2)cc1 (centres undefined) | -1 | -7 | 86* | 2 | 3 | / | i | -11
CCCC(=O)c1ccc(N2CCN(C(=O)c3ccccc3)CC2)c(F)c1 | -8 | / | -6 | 3 | -3 | -21 | i | -8
CCOC(=O)c1c(C)oc2ccc(O)c(CN(C)C)c12 | -4 | / | -15 | -2 | 0 | 2 | i | 4
COc1cccc(C2C=C(c3cccs3)Nc3ncnn32)c1OC (centres undefined) | 6 | / | -15 | -12 | 5 | -29 | i | 6
Cc1nc(NC(=O)CSc2nnc(C3CC3)n2C)sc1C(=O)N(C)C | 0 | 14 | -12 | 2 | 7 | -17 | i | -5
COc1ccc(N2CCN(C(=O)c3cccc4nc(C)oc34)CC2)cc1 | 3 | 0 | -2 | 1 | -2 | -3 | i | -1
COc1ccc(C(=O)NC(=S)Nc2ccc3oc(=O)ccc3c2)cc1 | 11 | -11 | / | -6 | -6 | -12 | i | 24
Cc1ccc(NS(=O)(=O)c2c(C)[nH]c(C)c2C(=O)N2CCCCC2)c(C)c1 | -6 | 0 | -18 | -1 | -2 | 2 | i | -9
Cc1ccccc1OCCC(=O)N1CCN(S(=O)(=O)c2ccc(Cl)cc2)CC1 | / | / | -13 | -7 | -7 | -3 | i | /
CCc1nc2ccc(C(=O)NCCc3ccc(OC)c(OC)c3)cc2nc1CC | -12 | 4 | 10 | 4 | -2 | -9 | i | 13
COc1cccc(CNC(=O)CSCC(=O)Nc2cc(C)on2)c1 | / | -9 | -9 | -5 | 5 | -3 | i | /
COCC(C)n1c(C)cc(C(=O)COC(=O)c2ccc3ncsc3c2)c1C (centres undefined) | -5 | / | 9 | 1 | 4 | -10 | / | 1
O=C(CCS(=O)(=O)c1ccccc1Cl)NCCC1=CCCCC1 | -11 | -16 | -7 | 0 | 1 | -2 | i | -1
Cc1ccc(S(=O)(=O)NNc2nc3ccccc3nc2C(F)(F)F)cc1 | -12 | / | / | 4 | -1 | -18 | i | -7
Cc1cnc(NC(=O)CCCc2nc3ccccc3s2)s1 | -1 | / | 6 | 4 | -4 | / | i | -4
CCCCN1CC(=O)N2Cc3[nH]c4ccccc4c3C[C@H]2C1=O | 6 | 5 | -10 | 2 | 3 | 6 | i | 3
COC(=O)c1sc(=S)n(-c2ccccc2OC)c1N | -8 | -46 | -12 | 5 | 2 | -13 | i | 2

Overlap with the part before: six entries; new compounds follow.
SMILES | eIF4H inh | Env fusion inh | CSC inhib | MT1-MMP act inh | MT1-MMP act inh RFP | Yeast UUG start | Rce1 inhib | PABP polyA inh
COCC(C)n1c(C)cc(C(=O)COC(=O)c2ccc3ncsc3c2)c1C (centres undefined) | -5 | / | 9 | 1 | 4 | -10 | / | 1
O=C(CCS(=O)(=O)c1ccccc1Cl)NCCC1=CCCCC1 | -11 | -16 | -7 | 0 | 1 | -2 | i | -1
Cc1ccc(S(=O)(=O)NNc2nc3ccccc3nc2C(F)(F)F)cc1 | -12 | / | / | 4 | -1 | -18 | i | -7
Cc1cnc(NC(=O)CCCc2nc3ccccc3s2)s1 | -1 | / | 6 | 4 | -4 | / | i | -4
CCCCN1CC(=O)N2Cc3[nH]c4ccccc4c3C[C@H]2C1=O | 6 | 5 | -10 | 2 | 3 | 6 | i | 3
COC(=O)c1sc(=S)n(-c2ccccc2OC)c1N | -8 | -46 | -12 | 5 | 2 | -13 | i | 2
COc1ccc(S(=O)(=O)N(C)C2CCS(=O)(=O)C2)cc1OC (centres undefined) | -2 | / | -7 | 6 | 1 | -6 | i | -16
CC1(C)CC(=O)C(/C=N/n2cnc3ccccc3c2=O)=C(O)C1 | 3 | -11 | 0 | 2 | -2 | -9 | i | 10
Cc1cccc(OCC(O)Cn2c(NCc3cccnc3)nc3c2c(=O)[nH]c(=O)n3C)c1 (centres undefined) | -7 | / | -5 | 4 | 6 | -7 | i | -12
Cc1cc([N+](=O)[O-])c(=O)[nH]c1C | / | -13 | / | 2 | 2 | -32 | / | /
CCc1nnc(NC(=O)[C@@H](NC(=O)c2ccc(C(C)(C)C)cc2)C(C)C)s1 | -1 | -23 | -22 | -6 | -4 | -5 | i | 3
CCN(CC)CCNC(=O)C(C)c1nn(CC)c(=O)c2ccccc12 (centres undefined) | -3 | / | 5 | -2 | 2 | / | i | -3
O=C(NCc1nc2ccccc2[nH]1)C1=C[C@H](c2coc3ccccc3c2=O)C[C@H](OCCCCO)O1 | / | -3 | 13 | -4 | 3 | -18 | i | /
CC(=O)Nc1ccc(NC(=O)CCC(=O)OCC(=O)c2ccc(F)cc2)cc1 | -10 | -6 | -2 | -2 | 5 | -26 | i | -1
CC(C)[C@H](NC(=O)OCc1ccccc1)C(=O)OCC(=O)NC1(C#N)CCCC1 | 12 | 17 | -1 | -2 | 5 | -1 | i | -2
Cc1cc2cc3c(cc2nc1SCC(=O)N1CCN(C(=O)c2ccco2)CC1)OCO3 | 3 | / | -7 | 1 | -1 | -15 | / | -3
Cc1ccsc1C(=O)Nc1cccc(S(=O)(=O)N(C)C)c1 | -13 | 1 | 3 | 6 | 6 | / | i | 0
C[C@]12C(=O)N(c3ccc(F)cc3)C(=O)N1[C@H]1c3ccccc3OC[C@@H]1[C@H]2c1ccccc1 | / | -52 | -1 | -2 | -9 | -12 | / | /
Cc1ccccc1C(=O)N1CCC(C(=O)Nc2ccc(S(=O)(=O)N3CCCC3)cc2)CC1 | -17 | / | -8 | 3 | -2 | -2 | i | -8
CCN(CC)C(=O)CSc1n[nH]c(=S)n1N | -2 | 14 | -18 | 3 | 4 | -8 | i | 2
O=C(COc1ccccc1[N+](=O)[O-])N/N=C/c1ccncc1 | 3 | 6 | -1 | 1 | 2 | -14 | i | -14
Cc1[nH]c2ccccc2c1C(=O)C(=O)NCCCn1ccnc1 | -10 | 13 | -7 | -3 | -1 | / | i | -7
O=C(CCS(=O)(=O)c1cccc2nsnc12)N1CCN(C(=O)c2ccco2)CC1 | 4 | -9 | / | 0 | 1 | -11 | i | 18
O=C(O)CCC(=O)Nc1ccccc1C(=O)NCc1ccco1 | 0 | / | 20 | 2 | 5 | -13 | i | 8
O=C(c1cc(Br)c(Br)s1)N1CCN(C/C=C/c2ccccc2)CC1 | 2 | -13 | -1 | 0 | 1 | -16 | i | -4
COc1cccc(NC(=S)NC(=O)/C=C/c2ccco2)c1 | 41 | -86 | 42 | -8 | 6 | -11 | i | 30
O=[N+]([O-])c1ccccc1S(=O)(=O)Nc1ccc(-c2ccc(N3CCOCC3)nn2)cc1 | / | -35 | 11 | 3 | -2 | -6 | i | /
Clc1ccc(OCc2nc(-c3ccncc3)no2)cc1 | -15 | -89 | 3 | 5 | -3 | -20 | i | 2
COc1ccc(N(CC(=O)NCc2ccc(Cl)cc2)S(=O)(=O)c2c(C)n[nH]c2C)cc1 | -13 | 7 | -15 | -5 | -5 | 3 | i | -1
CN1CCN(C(=O)c2ccc3c(c2)S(=O)(=O)c2ccccc2C3=O)CC1 | 10 | -6 | 4 | 1 | 2 | -26 | i | -4
CCOC(=O)C1CCCN(Cc2nc(N)nc(Nc3ccccc3OC)n2)C1 (centres undefined) | 2 | -3 | -13 | 0 | 5 | -7 | i | -14
CC(C)(C)c1ccc(S(=O)(=O)NCC(=O)N2CCN(Cc3ccccc3)CC2)cc1 | -5 | 13 | 9 | 1 | -4 | -4 | i | 6
CCCN(CCC)C(=O)c1ccc2c(c1)OCO2 | -4 | -3 | -9 | -4 | 2 | -9 | i | 20
COc1ccc(/C=N/NC(=O)c2ccccc2O)cc1Cn1cc([N+](=O)[O-])cn1 | 4 | -1 | 7 | 2 | 2 | -2 | i | -3
O=C(N/C(=C/c1cccc([N+](=O)[O-])c1)C(=O)N1CCOCC1)c1ccccc1Br | -5 | 7 | 12 | 0 | 2 | -10 | i | -3
COc1cccc2sc(N(CCN(C)C)C(=O)/C=C/c3cccs3)nc12 | 3 | -1 | 6 | -2 | -1 | / | i | 2
CCOc1ncccc1C(=O)Nc1cc(C(F)(F)F)ccc1N1CCOCC1 | / | 3 | / | 12 | -3 | -10 | / | /
COc1ccc(CNC(=O)CCCn2ncn3c(cc4occc43)c2=O)cc1 | -6 | 13 | 10 | 0 | 5 | 3 | i | -6

From PubChem BioAssay
